Screens: PubChem BioAssay, National Center for Advancing Translational Sciences (NCATS)
VDR inhibitor: Inhibitors of the vitamin D receptor (VDR): qHTS; 400,000 compounds, 0.93% hits; VDR-SRC2-3 peptide fluorescence polarization, 2 h; Potency, µM, for inactives: max response, negative = inhibition, hits mostly inhibitors; AID 504847, 2011; active = well fitted inhibition curve with a large enough effect; inconclusive = small, poorly fitted or top-dose-only effect, or another doubt; inactive = no such curve, though single readings can be large or run the other way; also: series mostly up to about 120 µM
Target sequence (P11473 whole entry, looked up): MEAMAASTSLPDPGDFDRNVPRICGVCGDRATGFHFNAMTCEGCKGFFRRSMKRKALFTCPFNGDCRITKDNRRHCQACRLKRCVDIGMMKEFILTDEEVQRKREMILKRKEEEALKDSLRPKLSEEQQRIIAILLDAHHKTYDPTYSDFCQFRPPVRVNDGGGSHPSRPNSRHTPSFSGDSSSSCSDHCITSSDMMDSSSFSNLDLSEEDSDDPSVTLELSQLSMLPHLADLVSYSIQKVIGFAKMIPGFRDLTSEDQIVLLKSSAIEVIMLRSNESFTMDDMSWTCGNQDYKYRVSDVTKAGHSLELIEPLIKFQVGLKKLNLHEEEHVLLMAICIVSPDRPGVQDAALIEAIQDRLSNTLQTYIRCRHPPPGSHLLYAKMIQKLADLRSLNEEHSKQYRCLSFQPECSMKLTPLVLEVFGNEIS
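Two reagent solutions held at 4 deg C in the dark were dispensed, compounds pinned at 23 nl, and the mixture incubated 2 h at room temperature. Read-out: fluorescence polarization of VDR–SRC2-3 peptide binding.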
* marks the source's active call; other numbers are inactive results; ? = inconclusive; & = joins results of further samples; [ ] = dose if it differs, or a comment. % is scaled to controls: 0 for no effect and ±100 for the full control effect; potency is read from the fitted curve at half-maximal effect. An excerpt; rates above refer to the full screens.

SMILES	VDR inhibitor
CCOc1ccc(Cn2c(C)nc([N+](=O)[O-])c2SCC(O)CCl)cc1[N+](=O)[O-] (configuration not stated)	-7%
COC(=O)CCCNS(=O)(=O)c1ccc2ccccc2c1	109%[activator]
C[C@@H]1NC(=O)c2cc([N+](=O)[O-])cc(I)c2NCCCC[C@@H](C(N)=O)NC(=O)[C@H](CCC(=O)O)NC1=O	?
CN1C=CC(=O)[C@@H](O)[C@H]1c1ccccc1Br	1%
COC(=O)c1ccccc1NC(=O)Cn1cnc2c1c(=O)n(C)c(=O)n2C	5%
CC1CCCN(CCCNC(=O)c2ccc(N3CCCC3=O)cc2)C1 (configuration not stated)	14%
CCOCC(=O)Nc1ccc([N+](=O)[O-])cc1Cl	2%
Cn1c(/C=C/c2ccccc2[N+](=O)[O-])nc2ccccc2c1=O	-3%
CCOc1ccc(Br)cc1S(=O)(=O)N1CC(C)OC(C)C1 (configuration not stated)	-6%
O=C(COC(=O)c1ccc(CSc2ccc(Cl)cc2)cc1)Nc1ccccc1	2%
CCn1c(SCC(=O)c2cc(C)n(-c3ccc(C(=O)OC)cc3)c2C)nnc1-c1cccnc1	6%
Cc1ccc(C)c(NC(=S)NNC(=O)c2csc3c2CCCC3)c1	6%
COc1ccccc1N(CC(=O)N/N=C(\C)c1ccccc1O)S(=O)(=O)c1ccc(C)cc1	8%
CCOc1ccccc1C(=O)Nc1ccc(C(=O)c2ccccc2)cc1	?
CC(=O)Nc1ccc(N2C(=O)CSC2c2cccc([N+](=O)[O-])c2)cc1 (configuration not stated)	17%
CCCCN(CC)CCNC(=O)C1CCCN(S(=O)(=O)c2cccc3nsnc23)C1 (configuration not stated)	-11%&-7%
N#Cc1ccc(NC(=O)CN2CCN(c3ccccn3)CC2)cc1	-9%
O=C(CC1SC(N2CCCCC2)=NC1=O)Nc1ccc(C(=O)Nc2ccccc2)cc1 (configuration not stated)	0%
O=C1CCCCN1CCC(=O)N1CCCC(N2CCN(c3cccc(Cl)c3)CC2)C1 (configuration not stated)	1%
O=C(NCCCNC(=O)c1ccccn1)c1ccc(Cl)cc1	-17%

Reprinted at random: 5 records from the list.
SMILES	VDR inhibitor
N#Cc1ccc(NC(=O)CN2CCN(c3ccccn3)CC2)cc1	-9%
CCCCN(CC)CCNC(=O)C1CCCN(S(=O)(=O)c2cccc3nsnc23)C1 (configuration not stated)	-11%&-7%
COC(=O)CCCNS(=O)(=O)c1ccc2ccccc2c1	109%[activator]
O=C(COC(=O)c1ccc(CSc2ccc(Cl)cc2)cc1)Nc1ccccc1	2%
CN1C=CC(=O)[C@@H](O)[C@H]1c1ccccc1Br	1%

Other structures.
SMILES	VDR inhibitor
COc1ccccc1-n1c(SC)nc2c(sc(=S)n2-c2ccccc2)c1=O	18%
COc1ccc(Cc2nc3ccc(C(=O)NCC4CCOCC4)cc3o2)cc1OC	-8%
C=CCN(CC=C)C(=O)c1ccc(OC2CCN(S(=O)(=O)N(C)C)CC2)cc1	-8%
COc1ccccc1NC(=O)N1CCCC1C(=O)NCC1CCCO1 (configuration not stated)	-1%
CC(SCc1ccccc1)C(=O)Nc1ccc2c(c1)OCO2 (configuration not stated)	10%
Cc1nc(SCC(=O)c2ccccc2)c([N+](=O)[O-])[nH]1	-4%
CCOC(=O)c1ccc2[nH]c3c(c2c1)CCCCC3=O	-14%
O=C(CNCc1cccs1)NC12CC3CC(CC(C3)C1)C2	-18%
COc1ccc(CCNC(=O)CSc2nc(-c3ccc(OC)c(OC)c3)ccc2C#N)cc1	-2%
Cc1cccc(OCC(=O)NCCCNC(=O)c2cnccn2)c1	34%[activator]
CCOC(=O)CN(C#N)c1nc(C)cc(C)n1	-1%
CC1=NNC(=O)C1CCC(=O)N/N=C(/C)c1ccc([N+](=O)[O-])cc1 (configuration not stated)	-2%
CC1(C)Cc2cccc(OCC(=O)OCC(=O)Nc3ccccc3)c2O1	-12%
Cc1ccn2c(=O)nc(SCC(=O)N3CCC(Cc4ccccc4)CC3)nc2c1	-5%
C=CCc1cccc(/C=N/n2c(C)nnc2C)c1O	11%
CC(C)NC(=O)Cc1ccc(Br)cc1	5%
C/C(=C\c1ccccc1)C(=O)Nc1ccc(Cl)cn1	-8%
O=C(C1=C(Nc2ccccc2)c2ccccc2S(=O)(=O)N1)c1ccccc1	-4%
O=C(CN1C(=O)NC(c2ccccc2)(c2ccccc2)C1=O)N1CCOCC1	11%
CC(=O)OCC1OC(n2cc(F)c(=O)[nH]c2=O)C(OC(C)=O)C1OC(C)=O (configuration not stated)	-6%
COc1ccc(CCNC(=O)C(=O)NCC(c2ccco2)S(=O)(=O)c2ccc(C)cc2)cc1 (configuration not stated)	-1%
CC(C)(C)NC(=O)c1ccc(Cn2cc(C(F)(F)F)ccc2=O)cc1	5%
CCc1cccc(OCC(=O)Nc2ccccc2N2CCCC2)c1	8%
Cc1ccc(OCc2cc(C(=O)N3CCN(C4CCCC4)CC3)no2)cc1C	-2%
COc1ccc(CCNC(=O)CCNC(=O)c2ccc(Cl)cc2)cc1OC	-6%
CCOC(=O)C(Cc1c(F)cccc1Cl)c1ccno1 (configuration not stated)	15%
O=C(OC(C(=O)NC1CCCC1)c1ccc(F)cc1)c1ccno1 (configuration not stated)	-12%
S=C(NCc1ccc(Cl)c(Cl)c1)Nc1ccc2c(c1)OCO2	?
CCOC(=O)c1c(NC(=O)c2ccc(S(=O)(=O)N(CC)CC)cc2)sc2c1CCCCC2	-15%
O=C(Nc1cccc(-c2nnn(CC(=O)N3CCc4ccccc4C3)n2)c1)C1CCC1	5%
Cc1nc(NCCCO)c(C#N)c2c1COC(C)(C)C2	-4%
S=c1nc(-c2sccc2OCc2ccc(Cl)cc2Cl)[nH][nH]1	-2%
O=C(CCc1ccccc1)NNC(=S)NC(=O)c1ccc(Cl)cc1	-6%
COc1cc(C(c2nnnn2C2CCCC2)N2CCc3ccccc3C2)ccc1O (configuration not stated)	-1%
COc1cc(/C=C2\Oc3cc(O)ccc3C2=O)ccc1O	2%
Cc1cc(N2C(=O)c3ccccc3C2=O)n(C)n1	5%
CCOc1ccccc1CNC(=O)Cn1nc(N2CCN(c3ccccc3)CC2)ccc1=O	-1%
CC(=O)N1c2ccc(S(=O)(=O)N3CCC(C(=O)N4CCCC(C)C4)CC3)cc2CC1C (configuration not stated)	19%
CCOc1ccccc1NC(=O)Cn1nnc(C(=O)NCc2ccco2)c1N	8%
Cc1ccccc1N1C(=O)Cc2ccccc2C1=O	-10%
COCc1ccccc1C1=CC(=O)C[C@H](c2ccc(F)cc2)C1	1%
CN(C)c1cccc2c1c(NC(=O)Nc1ccc(F)cc1F)nn2C	-2%
N=C(N)N1CCc2ccccc21	13%
O=C(CN1C(=O)/C(=C/c2ccccc2F)Sc2ccccc21)NCc1cccnc1	-3%
COc1ccc(CCNC(=O)C2CCCN2C(=O)Nc2ccccc2)cc1OC (configuration not stated)	-10%
Cn1cc(CNC(=O)c2cc(-c3ccccc3)nc3ccc(Br)cc23)cn1	-29%
Cc1ccc(Nc2nc3ccccc3s2)cc1	-6%
CCn1nc(CC(C)C)cc1C(=O)N1CCCC(Nc2ccc(F)cc2)C1 (configuration not stated)	5%
Cc1cccc(NC(=O)NCCCCc2ccccc2)c1	0%
O=C(c1ccc(CS(=O)(=O)c2ccc(Br)cc2)o1)N1CCOCC1	-18%
COc1ccccc1NC(=O)CN1CCN(c2ccccc2)CC1	5%
Cc1cc(C)n(-c2ccc(C(=O)OCC(=O)Nc3cc(Cl)ccc3[N+](=O)[O-])cc2)n1	-17%
Cc1csc(NC(=O)CSc2nc3sc(C)c(C)c3c(=O)[nH]2)n1	?
COc1ccccc1NC(=O)CSc1nc2ncccc2[nH]1	6%
O=C(CSc1nnnn1Cc1ccccc1)c1ccc(F)cc1	3%
CCCCCNc1nc2sc3c(c2c(=O)n1-c1cccc(Cl)c1)CCN(C)C3	6%
COc1cccc(N=Nc2c(C)[nH]n(-c3ccccc3)c2=O)c1	-8%
Cc1ccc(NC(=O)c2ocnc2C)cc1Cl	-1%
CCOC(=O)c1c(C)[nH]c(C)c1S(=O)(=O)NCCCN1CCOCC1	-7%
CC(C)n1c(=N)c(C(=O)NCc2ccccc2)cc2c(=O)n3ccccc3nc21	-5%

Entries listed so far containing an NH in an aromatic ring (8):
SMILES	VDR inhibitor
Cc1nc(SCC(=O)c2ccccc2)c([N+](=O)[O-])[nH]1	-4%
CCOC(=O)c1ccc2[nH]c3c(c2c1)CCCCC3=O	-14%
CC(=O)OCC1OC(n2cc(F)c(=O)[nH]c2=O)C(OC(C)=O)C1OC(C)=O (configuration not stated)	-6%
S=c1nc(-c2sccc2OCc2ccc(Cl)cc2Cl)[nH][nH]1	-2%
Cc1csc(NC(=O)CSc2nc3sc(C)c(C)c3c(=O)[nH]2)n1	?
COc1ccccc1NC(=O)CSc1nc2ncccc2[nH]1	6%
COc1cccc(N=Nc2c(C)[nH]n(-c3ccccc3)c2=O)c1	-8%
CCOC(=O)c1c(C)[nH]c(C)c1S(=O)(=O)NCCCN1CCOCC1	-7%

(continued)
SMILES	VDR inhibitor
FC(F)(F)c1cc(N2CCNCC2)c2ccccc2n1	-1%
COc1ccccc1C(=O)NNC(=O)c1ccc(NC(=O)CC(C)C)cc1	-19%
O=C1NC(=O)c2cc(Oc3ccc([N+](=O)[O-])cc3)ccc21	-10%
CSc1nc(N(C)NC(=O)c2ccc(Cl)cc2)c2ccccc2n1	-20%
NC(=O)c1ccc(NC(=O)CNC(=O)c2sc3ccccc3c2Cl)cc1	-2%
COc1cccc(NC(=O)c2ncn[nH]2)c1	-4%
O=C(NNc1c(Cl)cc(Cl)cc1Cl)c1n[nH]c(=O)c2ccccc12	-4%
O=C(NCCN1CCc2ccccc2C1)C1CCN(S(=O)(=O)N2CCC3(CC2)OCCO3)CC1	3%
Cn1cccc1/C=C1\SC(=Nc2ccc(O)cc2)NC1=O	4%
Nc1ccccc1C(=O)NCc1ccco1	-4%
Cc1ccc(-c2cc(C(F)(F)F)c(C#N)c(SCC(=O)Nc3ccccc3F)n2)cc1	-13%
CC(C)(C)SCCNC(=O)CSCc1ccc([N+](=O)[O-])cc1	-14%
CCc1nn2c(=O)cc(COC(=O)c3ccc(NC(=O)CCc4ccccc4)cc3)nc2s1	1%
CCOc1ccccc1NC(=O)CSc1nncc2ccccc12	17%
Cc1ccc(C)c(S(=O)(=O)N(C)c2ccc(OC(=O)CN3C(=O)NC4(CCCC4)C3=O)cc2)c1	0%
ClC1(Cl)CC1Cn1c(C2CC2)nc2ccccc21 (configuration not stated)	-20%
Cc1ccc(NC(=O)CSc2nnc(CNC(=O)c3ccccc3F)o2)cc1	14%
Cc1ccccc1Nc1nc2ccccc2n1C(C)C	11%
O=C(O)c1ccccc1N1C(=O)C2C3CCC(C3)C2C1=O (configuration not stated)	8%
CCOc1ccc(S(=O)(=O)N2CCCCC2)cc1NC(=O)CN1C(=O)NC(C)(c2ccc(C)cc2)C1=O (configuration not stated)	11%
O=C1CNC(=S)N1Cc1ccc(Cl)cc1	-1%
COCCCn1c(Cc2ccccc2)nnc1SCC(=O)N1CCCCC1	2%
CC1(C)Oc2ccc(C(=O)N3CCOCC3)cc2N(CC(=O)Nc2ccccc2)C1=O	9%
O=C(c1ccc([N+](=O)[O-])cc1)N1CCSC1c1ccc(Br)cc1 (configuration not stated)	-16%
CC(=O)Nc1ccc(OS(=O)(=O)O)cc1	-6%
COc1ccc(OC)c(Nc2nc3ccccc3nc2-n2nc(C)cc2C)c1	-4%
CN(CC(=O)Nc1ccc(C(N)=O)cc1)CC(=O)Nc1ccccc1Cl	0%
Cc1ccc2nc(SCC(=O)Nc3ccc(F)cc3F)nc(=O)n2c1	-22%
O=C(C1CC1)N1N=C(c2ccc(Br)cc2)CC1(O)C(F)(F)F (configuration not stated)	-27%
CN(C)c1cc[n+](CC(=O)Nc2ccccc2C(F)(F)F)cc1	20%
Cc1ccccc1NC1=NC(=S)N(CC(N)=O)C12CCOC(C)(C)C2 (configuration not stated)	-3%
COc1cc(C(C)=O)ccc1COc1ccc(C(=O)O)cc1OC	0%
C=CCn1c(SCC(=O)O)nnc1-c1cccs1	-5%
COC(=O)c1ccsc1NC(=O)C1COc2ccccc2O1 (configuration not stated)	19%
O=C(c1cc2ccccc2oc1=O)N1CCSC1c1ccco1 (configuration not stated)	12%
CCOC(=O)c1c(-c2ccc(C)cc2)csc1NC(=O)/C(C#N)=C/c1ccc(O)c(OC)c1	-7%
Cc1ccc(NC(=O)c2c(NC(=O)c3ccc(F)cc3)sc3c2CCCC3)cc1C	79µM*
CCn1c(COc2ccc(=O)n(-c3ccccc3)n2)nnc1SCc1ccccc1C	10%
O=C(Nc1cccc(Cl)c1)Nc1ccnc(-c2cccnc2)n1	-15%
COc1ccccc1C(CNC(=O)c1ccc(NS(=O)(=O)c2ccc3c(c2)OCCO3)cc1)N(C)C (configuration not stated)	-1%
O=C(OCC(=O)N1CCN(S(=O)(=O)c2ccc(Cl)cc2)CC1)c1cccc(OC(F)F)c1	-12%
O=C1CCCC2=C1C(c1ccc(O)c(O)c1)Nc1ccc3ccccc3c12 (configuration not stated)	3%
CCN(CC)CCNC(=O)C1CCC(=O)N(c2ccc(OC)cc2)C1c1ccc(F)cc1 (configuration not stated)	0%
COc1cccc(N2CCN(C(=O)CN(C)S(=O)(=O)c3ccc4c(c3)c(=O)n(C)c(=O)n4C)CC2)c1	-5%
CCN1C(=NCc2cc(OC)c(OC)c(OC)c2)N[C@@H](c2cccc(C(F)(F)F)c2)C(C(=O)OC)=C1C	-5%
